gsp ag – qHTS for Agonist of gsp, the Etiologic Mutation Responsible for Fibrous Dysplasia/McCune-Albright Syndrome: qHTS. gsp mutant cells, cAMP HTRF, 30 min; control for the full effect not named in the record. Potency, µM (titrated, usually from 76.9 µM), for inactives: at the top dose activation (cAMP increase), hits mostly activators. actives 0.13% (n = 340,000). AID 624287, 2012; active = well fitted activation curve with a large enough effect; inconclusive = small, poorly fitted or top-dose-only effect, or another doubt; inactive = no such curve, though single readings can be large or run the other way; cell line not stated here;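 further: phosphodiesterase inhibitor Ro 20-1724 added with compounds to block cAMP breakdown; potency means the concentration at half of the fitted maximal effect; nearly all actives have a fitted effect of over 60% in size; about a fifth of the inactives were tested at one dose only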
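Cells stably selected in G418 were plated at 2000/well, grown 16-24 hr, then given compounds in DMSO with the PDE inhibitor […] (300 uM solution added) for 30 min at 37C; cAMP was read by HTRF.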
CtBP-E1A inh – qHTS Assay for Inhibitors of the CtBP/E1A Interaction; CtBP / adenovirus E1A interaction (AlphaScreen); AlphaScreen GST-E1A/His-CtBP binding, 1536-well; hits give low values; control for the full effect not named in the record; activity change, % (no concentration beside the values); actives 0.49% (n = 340,000); in the data active means activity change below about -65%; inconclusive means about -30% to -65%; inactive means above about -30%; further: on the % scale 0 is the no-effect control and ±100 the full control effect; compound concentration not given in the record
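In 5 uL wells, 23 nL compound meets equimolar GST-E1A and His-CtBP (5X stock 125 nM each) for 2 h, 37 °C. Beads (5X, 50 ug/mL) then 1 h, 37 °C, dark.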
D2 potentiator – Beta-Arrestin HTS for Positive Allosteric Modulators of the Human D2 Dopamine Receptor: Potentiators. actives 0.23% (n = 360,000). DiscoveRx D2 beta-arrestin cells, luminescence, 90 min; 100% = 57 uM dopamine signal. potentiation, % (concentration not given with the values). D(2) dopamine receptor (Homo sapiens), P14416; active = potentiation of 50% or more; inconclusive = 30% to 50%; inactive = 30% or less;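 further: compound concentration not given in the record; tested on top of an EC20 dose of dopamine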
Target sequence (P14416 whole entry, looked up): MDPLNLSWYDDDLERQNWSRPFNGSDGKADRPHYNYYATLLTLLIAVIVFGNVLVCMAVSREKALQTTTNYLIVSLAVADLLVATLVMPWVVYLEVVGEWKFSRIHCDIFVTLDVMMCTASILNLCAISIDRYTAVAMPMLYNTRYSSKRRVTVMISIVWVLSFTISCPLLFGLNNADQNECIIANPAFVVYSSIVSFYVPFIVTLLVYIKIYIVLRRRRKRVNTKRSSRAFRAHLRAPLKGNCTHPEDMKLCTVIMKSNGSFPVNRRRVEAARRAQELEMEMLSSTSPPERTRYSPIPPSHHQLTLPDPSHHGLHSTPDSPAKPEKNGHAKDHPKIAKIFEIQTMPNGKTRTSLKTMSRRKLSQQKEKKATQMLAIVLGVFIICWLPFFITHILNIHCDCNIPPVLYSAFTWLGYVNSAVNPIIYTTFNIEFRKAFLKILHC
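PathHunter D2 cells, attached overnight at 37 deg C, received compound in DMSO plus dopamine at EC20 (50 nM final) for 90 min at 37 deg C. Beta-arrestin recruitment was read as luminescence after 1 h with detection reagent at ambient temperature.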
gsp antag – qHTS for Antagonists of gsp, the Etiologic Mutation Responsible for Fibrous Dysplasia/McCune-Albright Syndrome: qHTS. gsp-mutant cells, cAMP HTRF, 30 min; control for the full effect not named in the record. Potency, µM (series often up to 76.9 µM), inactives show top-dose activity change, negative = inhibition, actives largely listed as inhibitors. actives 0.4% (n = 340,000); active = falling curve of any shape with a large fitted effect; inconclusive = falling curve, mostly with a smaller effect; inactive = flat or rising curve; cell line not stated here;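 further: intracellular cAMP measured with PDE inhibitor Ro 20-1724 present during compound exposure; potency means the concentration at half of the fitted maximal effect; on the % scale 0 is the no-effect control and ±100 the full control effect; nearly all actives have a fitted effect of over 65% in size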
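Cells, 2000/well, grown 16–24 h in DMEM 10% FBS with 0.5 mg/ml G418, then compounds plus […] (300 uM addition stock), 30 min at 37C. cAMP read by HTRF (cAMP-d2 and anti-cAMP antibody-K in lysis buffer) after 30 min RT.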
D2 agonist – Beta-Arrestin HTS for Positive Allosteric Modulators of the Human D2 Dopamine Receptor: Agonists; D(2) dopamine receptor (Homo sapiens), P14416; DiscoveRx PathHunter D2 beta-arrestin, luminescence, 90 min; 100% = 57 uM dopamine signal; activation, % (concentration not given with the values); actives 0.084% (n = 360,000); in the data active = activation above about 40%; inconclusive = about 15% to 40%; inactive = below about 15%; further: compound concentration not given in the record; the text of the record calls up to 30% inactive
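Agonist mode: compounds alone added to overnight-plated D2 PathHunter cells for 90 min at 37 C, with 57 uM final dopamine (EC100) defining full response. Beta-arrestin recruitment detected by chemiluminescent reagent, read after 1 h at ambient temperature.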
Six1-Eya2 blk – qHTS Assay for Inhibitors of the Six1/Eya2 Interaction; AlphaScreen GST-Six1/His-Eya2 binding, biochemical; hits give low values; control for the full effect not named in the record; Homeobox protein SIX1 (Homo sapiens) + Protein phosphatase EYA2 (Homo sapiens), …; AID 651725, 2012; actives 0.56% (n = 360,000); activity change, % (no concentration beside the values); in the data active = activity change below about -65%; inconclusive = about -30% to -65%; inactive = above about -30%; further: on the % scale 0 is the no-effect control and ±100 the full control effect; compound concentration not given in the record
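GST-Six1 + His-Eya2 (5X stock: 250/500 nM); Tris pH 8.0, 300 mM NaCl, 0.05% BSA, 0.02% Tween 20; GSH donor/Ni acceptor beads; 1 h 37 °C dark; AlphaScreen readout.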
Active calls of the source: *; ? = inconclusive; . = no result given; [ ] = dose if it differs, or a comment.

Structure | D2 potentiator | gsp ag | CtBP-E1A inh | D2 agonist | gsp antag | Six1-Eya2 blk
COc1ccc(NC(=O)c2ccc3c(c2)C(=O)N(CC2CCCO2)C3=O)cc1O (stereo not given) | -17.8 | -22.9% | -1.5 | -2.7 | -6.9% | -9.8
O=S(=O)(CCc1nc2ccccc2s1)c1ccc(Cl)cc1 | 7.0 | 11.8% | 5.5 | 2.5 | 2.1% | 12.3
Cc1cc(NC(=O)c2c(C)noc2C)no1 | -8.8 | -7.6%[15.4 µM] | -9.7 | 2.3 | 7.3% | 1.8
CCOc1cc(C(=O)Nc2ccc(C)cc2O)ccc1OCC(=O)N1CCOCC1 | 20.5 | -27.4% | -3.6 | 4.9 | 0.0% | -10.1
COc1ccccc1/C=C/C(=O)NCC(=O)N/N=C/c1ccc(C(=O)O)cc1 | -3.9 | -5.4% | 1.9 | 3.8 | 0.1% | -2.4
O=C1CN(C(=O)COC(=O)c2ccccc2Br)c2ccccc2N1 | -9.4 | -33.3%[inhibitor] | 12.0 | 2.6 | 4.4% | 5.5
CC(=O)Nc1ccc(NC(=O)C(C)OC(=O)C2(c3ccc(F)cc3)CCCC2)cc1 (stereo not given) | -0.8 | -16.1% | -1.7 | -1.2 | -17.9% | -3.4
O=C(C[C@H]1C/C=C\CC[C@H](Cc2ccc(F)cc2)C(=O)OC[C@H]2CCCN2C1=O)NCCO | -9.3 | . | -23.7 | -3.6 | -8.1% | -0.7
CC1CCCCC1NC(=O)CSc1nnc(-c2ccccc2)n1N (stereo not given) | -8.3 | 24.6% | -2.2 | -1.7 | -4.5% | 6.8
NC(=O)N/N=C1\CCS(=O)(=O)c2ccc(F)cc21 | -5.6 | 9.6%[15.4 µM] | -1.6 | -3.0 | 2.0% | 7.7
CC(C)N1CN=C(Nc2nc3ccccc3o2)NC1 | -3.9 | 6.7%[15.4 µM] | -3.2 | -6.2 | 4.7% | 10.8
CC(C)C(OC(=O)c1ccco1)C(=O)NCc1ccc2c(c1)OCO2 (stereo not given) | -0.6 | -0.4%[15.4 µM] | 24.0 | -7.1 | 5.1% | 4.3
COc1cc(NC(=O)CSc2nc3[nH]c(=O)cc(O)c3s2)cc(OC)c1OC | -0.4 | 22.2% | . | -1.5 | 5.0% | 11.3
O=C(Cc1ccc(Cl)cc1)NCC(=O)N1CCCCCC1 | -2.5 | -30.1%[inhibitor] | -2.6 | -0.5 | 8.8% | 8.4
CC(=O)Nc1ccc(S(=O)(=O)NNc2ccc([N+](=O)[O-])cc2)cc1 | 2.1 | 20.1% | . | ? | -6.8% | -9.0
CCOc1cccc(NC(=O)c2ccc(S(=O)(=O)N(C)C)cc2)c1 | -2.7 | -8.5% | 1.4 | -1.5 | -5.6% | -0.5
O=S(=O)(c1ccc(NC(=S)NN=C2CCCCC2)cc1)N1CCOCC1 | -2.4 | 10.7%[15.4 µM] | 0.0 | 1.6 | -3.9% | -12.0
COc1ccc(C2(NC(C)=O)CCN(C(=O)c3ccco3)CC2)cc1 | -8.1 | 7.5%[15.4 µM] | -1.3 | -5.6 | 7.3% | -9.9
CC(C)(C)c1ccc(S(=O)(=O)/N=C2\C=C(NS(=O)(=O)c3ccccc3)C(=O)c3ccccc32)cc1 | -6.0 | 4.0%[15.4 µM] | -29.4 | -6.1 | ? | ?
Cc1cccnc1C1=NOC(Cc2ccccc2)C(=O)N1CCOc1ccc(F)cc1 (stereo not given) | -2.7 | . | 4.2 | -3.0 | . | 0.6
CCn1c(C(=O)Nc2ccsc2C(=O)OC)cc2sc(Cl)cc21 | -4.4 | -76.2%[inhibitor] | 5.2 | -3.7 | 1.2% | -1.0
COc1ccc(Br)c2c1C(=O)CC2 | -0.9 | 9.0% | 4.6 | -4.0 | 1.0% | 4.0
CC1(C)C2CCC1(CS(=O)(=O)NC(CC(=O)O)c1cccc(Br)c1)C(=O)C2 (stereo not given) | -1.1 | -6.4%[15.4 µM] | 5.3 | -0.2 | -9.5% | -5.2
CC(=O)c1cccc(NC(=O)CSc2nnc(-c3ccc(S(=O)(=O)N4CCCC4)cc3)o2)c1 | -9.1 | ? | 10.4 | -1.6 | 1.1% | -1.7
OC(Cn1cncn1)(Cn1cncn1)c1ccc(F)cc1F | -3.9 | . | 20.3 | 0.4 | 3.3% | 22.5
Cc1noc(C)c1S(=O)(=O)N1CCC(C(=O)NCCCN2CC(C)CC(C)C2)CC1 (stereo not given) | -1.5 | -0.1% | 8.1 | -2.2 | 11.1% | 9.6
COc1ccc2cc(Br)ccc2c1CC(=O)N1CCCC1 | -15.0 | 9.4%[15.4 µM] | 6.9 | -0.8 | -16.8% | 6.9
O=C(NCC1CCCO1)C(c1ccc(N2CCOCC2)cc1)N(C(=O)Cn1nnc2ccccc21)c1ccccc1F (stereo not given) | 2.5 | ? | 0.0 | -2.3 | 3.2% | -8.3
CN(Cc1ccccc1)C(=O)c1ccc(NC(=O)Cc2ccc(NC(=O)C3CCN(C(=O)C4CCCCC4)CC3)cc2)cc1 | -7.6 | . | -0.5 | -1.8 | 9.5% | -14.7
CCC[C@H]1CN(Cc2ccccc2)C(=O)[C@@H]1CC(=O)NC | -7.8 | 21.8% | -10.9 | -10.7 | . | 4.8
COC(=O)c1cn(C(=O)/C=C/c2ccc(OC)c(OC)c2)c2ccccc12 | -4.5 | -27.1% | ? | -1.5 | -14.9% | -5.0
COc1ccc(S(=O)(=O)N2CCCCC2)cc1NC(=O)c1cccc(S(=O)(=O)N2CC(C)OC(C)C2)c1 (stereo not given) | -0.1 | ? | . | -1.1 | -18.4% | 0.6
O=C(NN=C1CCCC1)c1cc(-c2ccccc2)n[nH]1 | 0.2 | -6.7% | -0.2 | -0.9 | 8.1% | 2.8
COc1cccc(CNS(=O)(=O)c2c(C)[nH]c(C)c2C(=O)N2CCCCC2)c1 | -3.7 | -15.3% | 0.5 | -8.8 | 5.9% | -0.4
COc1ccc(C(=O)COC(=O)CCNS(=O)(=O)c2ccccc2)c(OC)c1 | -11.4 | 12.4% | -1.5 | -4.2 | -12.6% | -1.4
Cc1cc(F)ccc1S(=O)(=O)Nc1ccccc1C(=O)Nc1ccccc1-c1nc2ccccc2[nH]1 | -2.3 | 4.5% | -0.1 | 6.6 | -7.5% | 1.7
COc1ccccc1C(=O)OCC(=O)NC(=O)NC1CCCCC1 | -10.2 | -13.6% | 6.4 | -1.6 | 5.3% | 0.2
Cc1oc(-c2ccc(Cl)cc2)cc1-c1nn2c(-c3ccoc3C)nnc2s1 | 5.2 | -41.5%[inhibitor] | -22.8 | 0.4 | 0.4% | -11.6
COCc1[nH][nH]c(=O)c1C=Nc1ccccc1 | -4.9 | -8.6%[15.4 µM] | 0.0 | -8.7 | -2.3% | 0.0
N#Cc1ccc(NC(=O)Cn2cnc(S(=O)(=O)N3CCOCC3)c2)cc1 | -5.3 | 19.6% | -1.4 | -1.3 | 17.6% | 1.4

Ten compounds from above, arranged by heavy-atom count, smallest number first:
Structure | D2 potentiator | gsp ag | CtBP-E1A inh | D2 agonist | gsp antag | Six1-Eya2 blk
COCc1[nH][nH]c(=O)c1C=Nc1ccccc1 | -4.9 | -8.6%[15.4 µM] | 0.0 | -8.7 | -2.3% | 0.0
O=C(NN=C1CCCC1)c1cc(-c2ccccc2)n[nH]1 | 0.2 | -6.7% | -0.2 | -0.9 | 8.1% | 2.8
CCC[C@H]1CN(Cc2ccccc2)C(=O)[C@@H]1CC(=O)NC | -7.8 | 21.8% | -10.9 | -10.7 | . | 4.8
COc1ccccc1C(=O)OCC(=O)NC(=O)NC1CCCCC1 | -10.2 | -13.6% | 6.4 | -1.6 | 5.3% | 0.2
N#Cc1ccc(NC(=O)Cn2cnc(S(=O)(=O)N3CCOCC3)c2)cc1 | -5.3 | 19.6% | -1.4 | -1.3 | 17.6% | 1.4
Cc1oc(-c2ccc(Cl)cc2)cc1-c1nn2c(-c3ccoc3C)nnc2s1 | 5.2 | -41.5%[inhibitor] | -22.8 | 0.4 | 0.4% | -11.6
COc1ccc(C(=O)COC(=O)CCNS(=O)(=O)c2ccccc2)c(OC)c1 | -11.4 | 12.4% | -1.5 | -4.2 | -12.6% | -1.4
Cc1cc(F)ccc1S(=O)(=O)Nc1ccccc1C(=O)Nc1ccccc1-c1nc2ccccc2[nH]1 | -2.3 | 4.5% | -0.1 | 6.6 | -7.5% | 1.7
O=C(NCC1CCCO1)C(c1ccc(N2CCOCC2)cc1)N(C(=O)Cn1nnc2ccccc21)c1ccccc1F (stereo not given) | 2.5 | ? | 0.0 | -2.3 | 3.2% | -8.3
CN(Cc1ccccc1)C(=O)c1ccc(NC(=O)Cc2ccc(NC(=O)C3CCN(C(=O)C4CCCCC4)CC3)cc2)cc1 | -7.6 | . | -0.5 | -1.8 | 9.5% | -14.7

Continued:
Structure | D2 potentiator | gsp ag | CtBP-E1A inh | D2 agonist | gsp antag | Six1-Eya2 blk
O=S(=O)(c1ccccc1)c1ccccc1/C=N\O | -20.3 | 16.7% | -8.7 | 0.5 | -1.6% | 7.4
COc1ccc(C(C(=O)NC2CCCCC2)N(Cc2ccco2)C(=O)c2ccccn2)c(OC)c1 (stereo not given) | -8.0 | -4.7%[15.4 µM] | -9.8 | -4.4 | -2.4% | -5.9
CCCCCCc1cc2cc(-c3nnc(-c4ccccc4OC)o3)c(=O)oc2cc1O | 154.9* | -8.9% | -5.3 | ? | -31.4% | ?
COc1ccccc1CNc1cc(-c2ccccc2)ccc1OC | -2.1 | -3.8% | -8.3 | -2.3 | -14.1% | -29.5
Cc1ccc(NC(=O)COC(=O)CNC(=O)c2ccc(Cl)cc2Cl)cc1S(=O)(=O)N1CCOCC1 | 0.4 | -3.2%[15.4 µM] | 6.5 | -3.9 | -12.0% | -4.2
CC(=NNc1ccc([N+](=O)[O-])cn1)c1ccccc1 | 10.7 | -15.7% | 3.1 | -1.6 | 0.5% | 7.6
O=C(CN1C(=O)C2C3C=CC(C3)C2C1=O)NCCC1=CCCCC1 (stereo not given) | 3.1 | -26.3% | 10.0 | -4.0 | 9.1% | -1.7
O=C(NCc1cccc(C(F)(F)F)c1)c1csc([C@@H]2C[C@H](O)[C@@H](CO)O2)n1 | -12.9 | . | 2.1 | -1.8 | . | -0.5
CCOC(=O)C1=C(c2ccccc2)OC(N)=C(C#N)C1c1ccc(Br)s1 (stereo not given) | -6.4 | 3.5% | 1.7 | 3.0 | -7.2% | -6.1
CCc1ccccc1NS(=O)(=O)c1cc2c(cc1C)n(C)c(=O)c(=O)n2C | -3.0 | -22.0% | -4.0 | -2.6 | -9.6% | -11.3
O=S1(=O)CCOC[C@H](CC2CCCCC2)N1Cc1cccc(F)c1 | -6.1 | -11.6% | -1.1 | -0.4 | -9.5% | -20.7

Source: PubChem
